Rango dissoc inh: inhibition of RanGTP-driven Rango-importin beta dissociation; O95149+P62826; Biochemical FRET Rango-importin beta, RanGTP-induced dissociation; Potency, µM (titrated, usually from 46.1 µM), without a hit: at the top dose activity change, negative = inhibition; 0.071% of 340,000 active; active means falling FRET ratio curve, often poorly fitted, with flat reads before Ran was added; inconclusive means other falling curves, or compound fluorescence or quenching; inactive means flat or rising ratio curve;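 also: potency is read from the fitted curve at half-maximal effect; % of control where 0% means no effect; nearly all actives have a fitted effect of over 45% in size; -100% = wells without RanGTP and RCC1; the record marks most hits as doubtful in a second field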
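Rango (0.1 uM)–importin beta (0.25 uM) complex; RanGTP-RCC1 trigger; 45 min RT; CFP/YFP FRET read.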
Rango-impB inh: Rango-importin beta binding inhibition; Q14974; Rango CFP/YFP FRET sensor + importin beta, 45 min; Potency, µM (series often up to 92.2 µM), inactives show at the highest dose inhibition of complex formation; 0.031% of 340,000 active; AID 540263; active = rising FRET ratio curve, often small or poorly fitted; inconclusive = mostly compound fluorescence or quenching in the first reads; inactive = flat curves in all reads;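 also: potency is read from the fitted curve at half-maximal effect; 0% = DMSO wells and 100% = buffer wells lacking importin beta; nearly all actives have a fitted effect of over 15% in size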
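FRET biosensor Rango (snurportin 1 IBB between N-terminal EYFP and C-terminal Cerulean), 50 nM in PBS/1 mM DTT/0.02% Tween-20/0.1% BSA, preincubated 5 min RT with compound; 0.125 microM importin beta added, 45 min RT, CFP/YFP FRET ratio read.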
GLA inh pH 4.5: blocks human alpha-galactosidase A at pH 4.5. P06280. purified enzyme, 4-MU-alpha-Gal fluorescence, pH 4.5. activity change, negative = inhibition, % at 105 µM. 230,000 tested, under 10 active. AID 1467; inconclusive = small, poorly fitted or top-dose-only inhibition, or a rising curve; inactive = flat fitted curve, though single readings scatter; no compound was filed as active;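 also: 0% = full activity with enzyme and -100% = basal without enzyme; dose as in the result columns while the protocol names 77 µM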
Target sequence (P06280 whole entry, looked up): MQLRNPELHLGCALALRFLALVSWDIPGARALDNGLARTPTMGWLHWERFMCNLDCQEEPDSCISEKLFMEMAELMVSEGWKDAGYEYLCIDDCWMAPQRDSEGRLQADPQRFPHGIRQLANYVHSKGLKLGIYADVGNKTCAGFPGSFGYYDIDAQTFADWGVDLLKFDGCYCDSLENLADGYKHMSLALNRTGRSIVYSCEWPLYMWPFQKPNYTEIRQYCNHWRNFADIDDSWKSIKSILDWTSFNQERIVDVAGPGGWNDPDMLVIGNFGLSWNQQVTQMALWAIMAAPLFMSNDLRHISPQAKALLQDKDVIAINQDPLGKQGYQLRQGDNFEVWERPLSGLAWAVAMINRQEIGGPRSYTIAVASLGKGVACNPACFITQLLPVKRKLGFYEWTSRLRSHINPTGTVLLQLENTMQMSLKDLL
miR-21 FLuc: miR-21 reporter, rising signal. 340,000 tested, under 10 active. AID 2288. HeLa miR-21 FLuc reporter, luciferase, 48 h. Potency, µM (series often up to 38.3 µM), for the others: at the highest dose reporter change, positive = more light; active = well fitted rising curve with a large enough effect; inconclusive = small, poorly fitted or top-dose-only effect; inactive = no such curve, though single readings can be large or run the other way;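 also: % of control where 0% means no effect; miR-21 action dims this reporter so a rising signal means less miR-21 action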
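Luminescence from a firefly luciferase reporter carrying a miR-21 binding site downstream, stably expressed under a CMV promoter in HeLa cells that make miR-21 endogenously, reports miRNA modulation after 48 h compound exposure up to approximately 40uM final.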
The depositor's hits bear a star; ? = inconclusive; . = no result given. These rows are one share of the data. The share of hits here may be higher or lower than overall.

Rango dissoc inh | Rango-impB inh | GLA inh pH 4.5 | miR-21 FLuc | Structure
? | ? | 2 | -7% | CC(C)N1C(=O)S/C(=C/c2ccc3c(c2)n(C)c(=O)n3C)C1=O
-1% | 1.0% | 1 | 2% | CC(NC(=O)/C(=C/c1ccc(OC(F)F)cc1)c1ccccc1)c1ccccc1 (stereo not given)
1% | -0.1% | 3 | -14% | N#Cc1cc2c([nH]c1=S)CCCC2
? | ? | -3 | -44% | C/C(=N\Nc1cccc(C(=O)O)c1)c1ccc2c(c1)Nc1ccccc1S2
-1% | 1.6% | -2 | 19% | CCN(CC(=O)Nc1ccccc1-c1ccccc1)Cc1nc2ccccc2c(=O)[nH]1
1% | 3.1% | -5 | -14% | Cc1cc(-c2nnc3n2N=C(c2ccccc2Br)CS3)n[nH]1
-14% | -1.4% | 3 | -5% | COc1ccc(N2CCN(Cc3cc(=O)oc4cc5c(cc34)CCCC5)CC2)cc1
7% | -3.2% | -2 | -7% | C=CCNc1nc(NCc2ccco2)nc(OCC)n1
2% | 2.0% | . | . | COc1cccc(CNC(=O)COC(=O)c2c(NC(C)=O)sc(C)c2C)c1
11% | 3.8% | . | . | CCOC(=O)N1CCN(C(=O)c2cc(S(=O)(=O)N3CCc4ccccc43)ccc2OC)CC1
-5% | 0.2% | -2 | 0% | CC1CCc2sc(C(=O)NN=C3CCC(c4ccccc4)CC3)cc2C1 (stereo not given)
9% | 0.2% | . | 0% | Cc1cc(S(=O)(=O)N2CCCC2)ccc1OCC(=O)Nc1ccccc1
17% | -0.3% | . | -1% | OC(CNCC1CCCCC1)COc1ccccc1 (stereo not given)
10% | 4.6% | . | . | COCCNc1nnc(SCC(=O)Nc2cc(C)on2)s1
? | -5.2% | . | . | O=C1N[C@@H](Cc2ccccc2)C(=O)N2[C@@H]3N(S(=O)(=O)c4ccc(F)cc4)c4ccccc4[C@]3(Br)C[C@@H]12
-11% | 1.9% | . | -6% | O=C(c1ccc(N2CCOCC2)cc1)N1CCCC(Nc2ccccc2)C1 (stereo not given)
0% | -0.1% | . | -1% | CC1CC(C)CN(C(=O)Cn2c(=O)oc3cc(S(=O)(=O)N4CCCC4)ccc32)C1 (stereo not given)
2% | -7.3% | 2 | -5% | CCn1c(SCC(=O)c2ccc3ccccc3c2)nnc1-c1ccco1
16% | 1.2% | . | -2% | COc1ccc(NC(=O)c2oc3ccccc3c2CSC)cn1
0% | -0.6% | 3 | -1% | CCOc1ccc(NC(=O)C2(c3ccc(OC)c(OC)c3)CCCC2)cc1

2 records drawn at random from those above:
Rango dissoc inh | Rango-impB inh | GLA inh pH 4.5 | miR-21 FLuc | Structure
-5% | 0.2% | -2 | 0% | CC1CCc2sc(C(=O)NN=C3CCC(c4ccccc4)CC3)cc2C1 (stereo not given)
0% | -0.6% | 3 | -1% | CCOc1ccc(NC(=O)C2(c3ccc(OC)c(OC)c3)CCCC2)cc1

Next part:
Rango dissoc inh | Rango-impB inh | GLA inh pH 4.5 | miR-21 FLuc | Structure
-10% | ? | 11 | -7% | O=C(Cc1ccc(-n2c(=O)c3ccccc3n(Cc3ccccc3Cl)c2=O)cc1)NCC1CCCO1 (stereo not given)
11% | 0.3% | -18 | 23% | COc1cccc(CNC(=O)c2cc3oc4ccccc4c3n2C)c1OC
3% | -9.6% | -3 | -7% | CC(C)Oc1ccc(Oc2ccc(C(F)(F)F)cn2)cc1
3% | -1.6% | -4 | 0% | CCOC(=O)c1c(NC(=O)c2cccs2)sc2c1CC(C)(C)OC2
-3% | 1.0% | 2 | -18% | Cc1cccc2nc(Cn3c(=O)n(CCCC(=O)NCc4ccco4)c(=O)c4ccccc43)cc(=O)n12
17% | -0.8% | -7 | -12% | O=C(OCn1nnc2ccccc2c1=O)c1cn(-c2ccccc2)nc1-c1cccnc1
-2% | 0.7% | 0 | -1% | CC(=O)Nc1nc2c(C)c(Cl)ccc2s1
14% | 0.4% | . | -34% | O=C(O)CN1C(=O)/C(=C\c2cccc(OCc3ccc(Cl)cc3Cl)c2)SC1=S
-7% | -0.2% | . | . | Nc1ccn(CC(=O)NCCc2ccccn2)c(=O)n1
0% | -4.3% | . | . | CC1CC(C)(C)CC2(C1)NC(=O)N(CC(=O)Nc1cc(C(F)(F)F)ccc1N1CCCCC1)C2=O (stereo not given)
-9% | 1.4% | -3 | -7% | Cc1cccc(-c2cc(=O)c(C(=O)O)cn2-c2ccc(F)cc2F)c1
1% | -1.4% | -14 | 16% | CC1CC(=O)C2=C(C1)Nc1ccccc1SC2c1ccc(F)cc1 (stereo not given)
-2% | 3.0% | -2 | -8% | Cc1ccc2c(c1)N(CC(=O)NCc1cccs1)C(=O)C(C)O2 (stereo not given)
17% | 0.1% | 1 | -4% | CCOC(=O)C1CCCN(C(=O)Cc2ccc(OC)c(OC)c2)C1 (stereo not given)
-1% | -0.6% | -6 | -1% | O=C(c1ccc2c(Cl)c3c(nc2c1)CCCC3)N1CCC(N2CCCCC2)CC1
31% | 1.9% | . | 0% | COc1ccccc1N1CCN(C(=O)c2cc(C(=O)N3CCN(c4ccccc4OC)CC3)cc([N+](=O)[O-])c2)CC1
-5% | 1.9% | 0 | 1% | O=C(O)CCSc1ccc([N+](=O)[O-])cc1[N+](=O)[O-]
0% | -5.1% | 3 | -3% | FC(F)(F)c1ccc(-n2cn[nH]c2=S)cc1
4% | 6.3% | 2 | -3% | CN(C)c1ccc(C(CNC(=O)c2ccccc2F)c2c[nH]c3ccccc23)cc1 (stereo not given)
17% | ? | . | 13% | COc1cc2c(cc1OC)/C(=C/C(=O)c1cccc([N+](=O)[O-])c1)NCC2
? | -0.1% | . | . | O=C(CSc1nc(=O)n(CCCN2CCOCC2)c2c1CCC2)Nc1ccc([N+](=O)[O-])cc1
-12% | -0.8% | . | . | COC(=O)[C@@H](Cc1ccccc1)NC(=O)Cn1cnc2c(SC)nc(N)nc21
0% | 0.9% | . | -5% | CNC(=S)N(CCCn1ccnc1)Cc1c(F)cccc1Cl
-22% | -3.3% | . | -7% | CC(C)n1nnnc1SCC(=O)NC1CCCC1
0% | -3.8% | . | . | COc1ccc(Cl)cc1NC(=O)CN(C)C(=O)c1ccc(-n2nc(C)cc2C)cc1
-10% | -1.8% | . | . | CC(CNCCCn1ccc(NC(=O)OCc2ccccc2)nc1=O)c1ccccc1 (stereo not given)
-7% | -0.8% | -12 | -3% | Cc1ccc(Cl)c(NC(=S)N(CCCN2CCOCC2)Cc2ccco2)c1
-7% | 0.1% | . | 0% | COC(=O)c1ccc(OCC(O)CN2CCN(C(=O)c3ccco3)CC2)cc1 (stereo not given)
-17% | -0.7% | . | . | O=C(COC(=O)C1CC1)NCc1ccccc1
2% | 5.3% | -9 | 4% | COc1ccc(C2C(C#N)=C(N)Oc3c2c(-c2ccccc2)nn3-c2ccccc2)c(OC)c1OC (stereo not given)
-3% | ? | -7 | -12% | O=C(c1cc([N+](=O)[O-])ccc1N1CCN(S(=O)(=O)c2ccc(Cl)c(Cl)c2)CC1)N1CCOCC1
14% | ? | -7 | -15% | CC1CCN(Cc2c(C#N)c3ccccc3n2C)CC1
10% | 6.7% | -7 | -5% | COc1ccccc1N1CCN(S(=O)(=O)c2c(C)ccc3nsnc23)CC1
2% | 2.8% | -9 | -17% | Cc1cccc(OC(C)c2ccnc3nc(/N=C/N(C)C)nn23)c1 (stereo not given)
-21% | -0.7% | . | -2% | COC(=O)C1=CN(c2ccc(OC)cc2)C=C(C(=O)OC)C1c1cc(OC)c(OC)cc1OC
8% | 4.3% | -5 | 4% | CCOc1cc(/C=N/NC(=O)CCc2n[nH]c(=O)[nH]c2=O)ccc1O
. | . | 3 | 16% | CCc1nc(N=C(N)N)nc2ccccc12
4% | -2.5% | 5 | -4% | COc1ccc(OCC(O)CNC(=O)Nc2ccc(Cl)cc2)cc1 (stereo not given)
0% | -0.6% | . | 19% | CCCCNS(=O)(=O)c1cc(-c2nn(C)c(=O)c3ccccc23)ccc1C
18% | -4.4% | . | 0% | COc1ccc(-n2ncc3c(N4CCN(c5cccc(C)c5C)CC4)ncnc32)cc1
10% | 0.5% | . | 4% | CN1CCN(c2cc(N3CCN(C(=O)c4ccco4)CC3)c3c4c(onc24)-c2ccccc2C3=O)CC1
3% | 3.5% | . | . | CCN(CC(=O)Nc1ccccc1OC)C(=O)C1CCCC1
-15% | 6.6% | -7 | -8% | Nc1nc2n(n1)C(c1cccc(Br)c1)CC(c1ccccc1)N2 (stereo not given)
-1% | 0.4% | -2 | 0% | O=C(O)c1n[nH]c2c1CCCCC2
2% | -0.3% | 10 | -5% | O=C(OCC1CC(c2ccccc2)=NO1)c1ccc(Cl)cc1 (stereo not given)
-5% | 1.7% | . | . | CS(=O)(=O)c1ccc(C(=O)OCC(=O)Nc2cccc(S(=O)(=O)N3CCCC3)c2)cc1
17% | 3.4% | 5 | 0% | CCOC(=O)N1CCC(N2C(=O)c3ccc(C(=O)O)cc3C2=O)CC1
5% | 4.7% | 6 | 3% | O=C(Cc1ccc([N+](=O)[O-])cc1)Nc1ccc2c(c1)C(=O)NC2=O

Part of the list above in order of SMILES length, largest number first:
Rango dissoc inh | Rango-impB inh | GLA inh pH 4.5 | miR-21 FLuc | Structure
-3% | ? | -7 | -12% | O=C(c1cc([N+](=O)[O-])ccc1N1CCN(S(=O)(=O)c2ccc(Cl)c(Cl)c2)CC1)N1CCOCC1
10% | 0.5% | . | 4% | CN1CCN(c2cc(N3CCN(C(=O)c4ccco4)CC3)c3c4c(onc24)-c2ccccc2C3=O)CC1
2% | 5.3% | -9 | 4% | COc1ccc(C2C(C#N)=C(N)Oc3c2c(-c2ccccc2)nn3-c2ccccc2)c(OC)c1OC (stereo not given)
-5% | 1.7% | . | . | CS(=O)(=O)c1ccc(C(=O)OCC(=O)Nc2cccc(S(=O)(=O)N3CCCC3)c2)cc1
-21% | -0.7% | . | -2% | COC(=O)C1=CN(c2ccc(OC)cc2)C=C(C(=O)OC)C1c1cc(OC)c(OC)cc1OC
5% | 4.7% | 6 | 3% | O=C(Cc1ccc([N+](=O)[O-])cc1)Nc1ccc2c(c1)C(=O)NC2=O
8% | 4.3% | -5 | 4% | CCOc1cc(/C=N/NC(=O)CCc2n[nH]c(=O)[nH]c2=O)ccc1O
-7% | 0.1% | . | 0% | COC(=O)c1ccc(OCC(O)CN2CCN(C(=O)c3ccco3)CC2)cc1 (stereo not given)
-10% | -1.8% | . | . | CC(CNCCCn1ccc(NC(=O)OCc2ccccc2)nc1=O)c1ccccc1 (stereo not given)
-7% | -0.8% | -12 | -3% | Cc1ccc(Cl)c(NC(=S)N(CCCN2CCOCC2)Cc2ccco2)c1
2% | 2.8% | -9 | -17% | Cc1cccc(OC(C)c2ccnc3nc(/N=C/N(C)C)nn23)c1 (stereo not given)
-15% | 6.6% | -7 | -8% | Nc1nc2n(n1)C(c1cccc(Br)c1)CC(c1ccccc1)N2 (stereo not given)
4% | -2.5% | 5 | -4% | COc1ccc(OCC(O)CNC(=O)Nc2ccc(Cl)cc2)cc1 (stereo not given)
2% | -0.3% | 10 | -5% | O=C(OCC1CC(c2ccccc2)=NO1)c1ccc(Cl)cc1 (stereo not given)
3% | 3.5% | . | . | CCN(CC(=O)Nc1ccccc1OC)C(=O)C1CCCC1
14% | ? | -7 | -15% | CC1CCN(Cc2c(C#N)c3ccccc3n2C)CC1
-17% | -0.7% | . | . | O=C(COC(=O)C1CC1)NCc1ccccc1
. | . | 3 | 16% | CCc1nc(N=C(N)N)nc2ccccc12
-1% | 0.4% | -2 | 0% | O=C(O)c1n[nH]c2c1CCCCC2

Screens (PubChem)
